Bioassay records: PubChem, several laboratories
rRNA inh HTS: selective bacterial rRNA inhibition in E. coli. E. coli WT GFP vs humanized-ribosome RFP mutants, fluorescence, 24 h; active compounds read low; DMSO median 0, no signal -100. GFP signal change (wild-type ribosome), % (no concentration beside the values). 350,000 compounds, 1.6% hits;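 active = significant combined selectivity score with lowered wild-type GFP, culture density cut under 30%, mutant RFP and density less affected; inactive = any of these conditions unmet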; also: one replicate is shown; some compounds called inactive have numbers as strong as hits
E coli growth: inhibitors of Escherichia coli growth; OD600, 23 h; active compounds read low; OD600 absorbance (concentration not given with the values); 330,000 compounds, 0.21% hits; AID 1053175;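 active = OD600 absorbance below the run mean of sample wells minus 3.6 SD, in any replicate, cut at about 0.56 in these data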;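 also: stock transfer was 300 nL into about 60 µL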
ALR H2O2 inh: human ALR oxidase inhibition via reduced H2O2; AID 485317; inhibition, % (concentration not given with the values); 290,000 compounds, 3.8% hits; purified ALR, DTT oxidation, H2O2 HRP-luminol luminescence; P55789;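 active = mean and each replicate at 75% or more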;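 also: stock transfer was 7.5 nL into about 7.5 µL; 0% = neutral wells and 100% = wells with inactivated enzyme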
Target sequence (P55789 whole entry, looked up): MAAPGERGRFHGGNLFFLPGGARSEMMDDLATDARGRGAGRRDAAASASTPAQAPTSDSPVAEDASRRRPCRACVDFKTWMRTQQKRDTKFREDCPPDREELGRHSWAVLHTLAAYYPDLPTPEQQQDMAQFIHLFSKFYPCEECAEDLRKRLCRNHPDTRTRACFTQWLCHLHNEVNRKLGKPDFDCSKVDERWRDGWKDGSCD
HNF4A DNA FP: change in binding of human HNF4 alpha to DNA; P41235; HNF4a-FITC DNA binding, fluorescence polarization, 1 h; activity change, % at 10 µM; 360,000 compounds, 0.3% hits; AID 1224865; in the data active = activity change above about 30%, passing the limit was not always enough;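 also: controls were the assay level and a saturating level of protein; the project sought stronger binding though the title names inhibitors; some compounds called inactive have numbers as strong as hits; positive values seem to mean higher polarization but the record does not say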
FGF22 binding: binders of recombinant human FGF22 by thermal shift; SYPRO orange fluorescence; percent of sucrose octasulfate shift, DMSO zero; calls only at 9.99 µM; 340,000 compounds, 1.5% hits;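 active = melting point raised past a set limit in the mean and every replicate; three in four hits are not shown here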
Target sequence (Q9HCT0 whole entry, looked up): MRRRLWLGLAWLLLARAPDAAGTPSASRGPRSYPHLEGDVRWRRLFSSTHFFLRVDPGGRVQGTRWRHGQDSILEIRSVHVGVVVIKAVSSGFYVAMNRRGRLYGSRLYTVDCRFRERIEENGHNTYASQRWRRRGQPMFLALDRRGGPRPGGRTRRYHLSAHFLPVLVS
B2AR ag: activates human beta-2 adrenergic receptor causing internalization. Am2.2-beta2AR cells, FAP receptor internalization, flow cytometry; reference of the scale not given here. response, % (test concentration not listed). 340,000 compounds, 0.43% hits. AID 504454;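 active = response above a set limit, near 3 SD of response in nonfluorescent compounds, cut at about 42% in these data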;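 also: stock transfer was 100 nL into about 11 µL; a reference agonist was the positive control; negative values mostly stem from fluorescent compounds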
UCH37 DUB inh: human UCH37 deubiquitinating enzyme inhibition | purified proteasome/UCH37, Ub-AMC cleavage fluorescence | 330,000 compounds, 0.33% hits | inhibition, % (test concentration not listed) | Q9Y5K5;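 active = mean of two replicates above 20%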;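 also: 0% = compound-free wells with enzyme and 100% = wells lacking proteasome; stock transfer was 100 nL into about 20 µL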
Target sequence (Q9Y5K5 whole entry, looked up): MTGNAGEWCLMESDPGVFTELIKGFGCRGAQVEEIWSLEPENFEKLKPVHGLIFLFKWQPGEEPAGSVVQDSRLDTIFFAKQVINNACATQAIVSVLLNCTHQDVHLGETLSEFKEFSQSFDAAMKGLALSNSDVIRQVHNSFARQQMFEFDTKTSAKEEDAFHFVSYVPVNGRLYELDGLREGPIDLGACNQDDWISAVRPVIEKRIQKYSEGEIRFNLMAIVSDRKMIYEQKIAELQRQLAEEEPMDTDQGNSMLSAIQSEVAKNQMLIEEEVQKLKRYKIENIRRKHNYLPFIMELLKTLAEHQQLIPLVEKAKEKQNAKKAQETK
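system = Proteasome-associated human UCH37 deubiquitinase | amount = 0.15 nM proteasome as dispensed | medium = pH 7.4 Tris-HCl (50 mM) with ovalbumin, ATP-MgCl2, DTT | incubation = 30 min preincubation with enzyme, 25 min cleavage at room temperature | detection = AMC fluorescence 355/460 nm | read-out basis = percent inhibition | controls = no-proteasome and no-compound wells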
rRNA inh HTS OD600: further read-out of rRNA inh HTS, marked with its call; OD600 change, %; measured here: OD600 growth;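 optical density of the mix in the first replicate; 0 = DMSO median and -100 = no signal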
rRNA inh HTS RFP: second read-out of rRNA inh HTS, no call of its own (marks repeat the call); RFP signal change, %; measured here: RFP humanized mutant strains;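 first replicate; 0 = DMSO median and -100 = no signal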
* hit, by the source's call; i = inactive; . = no result given. Only part of the results is shown; count on the stated rates, not on these rows.

SMILES	rRNA inh HTS	rRNA inh HTS OD600	rRNA inh HTS RFP	E coli growth	ALR H2O2 inh	HNF4A DNA FP	FGF22 binding	B2AR ag	UCH37 DUB inh
CCOC(=O)C1=C(C)N(CCCC(=O)O)C(=O)NC1c1ccccc1Cl (configuration not stated)	3.7	0.4	-0.9	0.682	-0.1	.	i	.	1.1
NS(=O)(=O)c1ccc(N2CCN(C(=O)C3COc4ccccc4O3)CC2)nc1 (configuration not stated)	-0.9	0.7	0.1	0.633	.	-1.0	i	0.8	-2.2
CC1CN(C(=O)CCC(=O)N2CCCCC2)c2cc(Cl)ccc2O1 (configuration not stated)	-22.3	-15.7	-4.2	0.724	-3.5	-1.3	i	11.8	-1.8
Cc1ccc(NC(=O)CSc2n[nH]c(-c3cccnc3)n2)c(Br)c1	-7.0	-8.4	2.9	0.661	6.2	-3.0	i	3.8	1.0
CC(=O)c1ccc(NC(=O)CSC2=NS(=O)(=O)c3cc(Cl)ccc3N2)cc1	4.5	3.7	0.6	0.71	.	-1.5	i	-6.0	6.5
Cc1cc2oc3c(c(=O)c2cc1C)C(c1ccc(C(C)C)cc1)N(CCCN1CCOCC1)C3=O (configuration not stated)	-7.8	-11.1	10.7	0.768	6.2	3.0	i	-9.2	-0.9
CCc1ccccc1NC(=O)CNC(=O)c1cc(C2CC2)nc2c1cnn2C(C)C	-10.3	-15.3	3.1	0.662	-1.1	-2.4	i	-6.6	-39.6
COc1ccccc1CCNC(=O)C1CCC(=O)N(C2CCCCCC2)C1 (configuration not stated)	4.6	5.7	3.2	0.741	3.9	0.0	i	0.7	3.3
O=C(CN1C(=O)COc2ccccc21)N(CCCN1CCOCC1)CC1CC=CCC1 (configuration not stated)	5.7	1.7	-2.5	0.709	-0.9	-2.3	i	2.3	3.2
CC(Oc1ccc(Br)cc1)C(=O)NC1CCCCCC1 (configuration not stated)	.	.	.	0.689	.	-5.6	i	2.1	0.9
CC(=O)c1cccc(NC(=O)c2ccccc2N(C)S(=O)(=O)c2ccc(C)cc2)c1	-15.0	-14.7	1.5	0.64	-8.2	-3.2	i	-5.4	3.2
O=C(CCn1c(=O)oc2cc(Cl)ccc21)Nc1ccc(N2CCOCC2)cc1	-2.3	4.9	-1.8	0.685	.	-0.9	i	-9.7	5.4
Nc1ccccc1C(=O)NC1CCCCNC1=O (configuration not stated)	1.2	9.8	-0.8	0.676	-1.9	4.1	i	0.7	-137.0
CCc1ccc(NC(=O)C(C)OC(=O)/C=C/c2ccc(O)c(OC)c2)cc1 (configuration not stated)	0.3	-11.3	10.4	0.697	57.3	1.6	i	4.5	-5.6
CC(=O)C1=C(C)Nc2ncnn2C1c1ccccc1Cl (configuration not stated)	13.4	8.4	2.1	0.711	3.7	3.8	i	5.1	3.5
CCOC(=O)c1c(NC(=O)CSc2nnc(Cc3ccccc3)o2)sc(C(C)=O)c1C	.	.	.	0.696	-4.4	0.4	.	-0.5	2.3
CCN(CC)C(=O)COc1ccc(-c2nnc(Nc3ccc(OC)c(C(=O)NC)c3)c3ccccc23)cc1	.	.	.	0.71	10.6	-0.7	i	6.5	5.7
COc1cc2c(cc1OC)CN(C(=O)c1ccco1)CC2	-4.3	7.6	-3.0	0.635	-5.9	1.8	i	-12.6	2.0
COc1ccc(-c2cc(C(=O)Nc3cc(C)ccc3O)no2)cc1	0.4	5.1	2.2	0.697	2.0	1.9	i	-6.7	1.6
O=C(N/N=C/c1cc2c3c(c1O)CCCN3CCC2)c1ccccc1O	2.1	16.5	-1.6	.	.	0.3	i	4.8	.

Part of the list above in another layout.
> Cc1cc2oc3c(c(=O)c2cc1C)C(c1ccc(C(C)C)cc1)N(CCCN1CCOCC1)C3=O (configuration not stated)
- rRNA inh HTS: -7.8
- rRNA inh HTS OD600: -11.1
- rRNA inh HTS RFP: 10.7
- E coli growth: 0.768
- ALR H2O2 inh: 6.2
- HNF4A DNA FP: 3.0
- FGF22 binding: i
- B2AR ag: -9.2
- UCH37 DUB inh: -0.9

> CCc1ccccc1NC(=O)CNC(=O)c1cc(C2CC2)nc2c1cnn2C(C)C
- rRNA inh HTS: -10.3
- rRNA inh HTS OD600: -15.3
- rRNA inh HTS RFP: 3.1
- E coli growth: 0.662
- ALR H2O2 inh: -1.1
- HNF4A DNA FP: -2.4
- FGF22 binding: i
- B2AR ag: -6.6
- UCH37 DUB inh: -39.6

> COc1ccccc1CCNC(=O)C1CCC(=O)N(C2CCCCCC2)C1 (configuration not stated)
- rRNA inh HTS: 4.6
- rRNA inh HTS OD600: 5.7
- rRNA inh HTS RFP: 3.2
- E coli growth: 0.741
- ALR H2O2 inh: 3.9
- HNF4A DNA FP: 0.0
- FGF22 binding: i
- B2AR ag: 0.7
- UCH37 DUB inh: 3.3

(listing goes on)
SMILES	rRNA inh HTS	rRNA inh HTS OD600	rRNA inh HTS RFP	E coli growth	ALR H2O2 inh	HNF4A DNA FP	FGF22 binding	B2AR ag	UCH37 DUB inh
COc1ccc(-c2ccc3ccccc3n2)cc1	5.6	3.5	-2.0	0.664	-3.1	-1.9	i	-0.8	-66.2
C(=N\Nc1ccccn1)/c1ccc(N2CCOCC2)cc1	4.2	-4.1	-3.0	.	98.9*	2.5	i	3.0	.
CC(=O)Nc1ccc2nc(CN3CCC(CO)(CCc4ccccc4)CC3)ccc2c1	7.7	5.7	-2.2	0.698	-20.3	8.0	i	3.7	-11.1
CCCOc1ccccc1OCC(=O)Nc1ccc(S(=O)(=O)N2CCCC2)cc1	-7.9	-15.8	-2.4	0.691	1.5	-0.5	i	4.6	2.5
Cc1cc(S(=O)(=O)Cc2noc(-c3c(C)noc3C)n2)c(C)cc1Cl	4.2	3.7	1.0	0.645	-26.7	-0.7	i	-3.4	1.1
COc1ccc(Nc2c(-c3ccco3)nc3cccc(C)n23)cc1	5.1	3.2	-1.4	0.648	.	2.8	i	-3.9	-28.5
CCOc1ccc(NC(=O)C2CCC(N3C(=O)C4CC=CCC4C3=O)CC2)cc1 (configuration not stated)	2.5	-2.5	-3.0	0.692	-6.2	-1.2	.	13.3	5.3
CCCCCCNS(=O)(=O)c1ccc(NC(=O)C2CCCO2)cc1 (configuration not stated)	.	.	.	0.696	-7.0	-1.1	i	-2.8	0.4
Cc1ccc(NS(=O)(=O)c2cc(C(=O)N3CCCC3)ccc2C)cc1C	-15.6	-13.9	-3.9	0.73	0.7	3.4	i	-7.1	0.2
O=C(c1nn2c(C(F)(F)F)cc(-c3ccc(F)cc3)nc2c1Cl)N1CCOCC1	.	.	.	0.744	1.9	1.5	.	0.6	1.7
Cc1cc(C)cc(C(=O)NCC(=O)OCC(=O)N2CCCCC2)c1	16.7	13.1	0.0	0.68	1.3	-3.7	.	-4.8	5.4
Cc1ccc(C)c(N(CC(=O)NCc2ccc3c(c2)OCO3)C(=O)CCC(=O)Nc2ccccn2)c1	.	.	.	0.716	-9.1	2.3	.	-6.8	4.9
CC(C)NC(=O)C1(C)CCCCCN1C(=O)c1ccc(-c2ccccc2)cc1 (configuration not stated)	-8.2	-14.6	5.2	.	.	1.5	i	.	.
COc1ccc(/C(C)=N\NC(=O)C(c2ccncc2)N2CCOCC2)cc1 (configuration not stated)	14.9	-1.2	1.3	.	-1.9	-0.6	i	4.1	.
COc1ccc(-c2csc(N)n2)cc1F	-17.4*	-5.1*	4.3*	0.629	95.7*	-9.8	i	1.8	1.7
Cc1cccc(C)c1NC(=O)C1(C)CN(S(C)(=O)=O)CC(=O)N1Cc1cccc(F)c1 (configuration not stated)	4.7	2.5	2.8	.	.	-0.7	i	.	.
CC(=O)Nc1ccc(CN(C)c2c(C)nc3ccc(C(=O)NC4CCN(Cc5ccccc5)CC4)cn23)cc1	4.3	6.9	0.4	.	.	1.5	i	.	.
O=C(Nc1ccc(S(=O)(=O)N2CCCC2)cc1)C1CCCCC1	-5.1	2.0	-0.6	0.67	.	-0.2	i	-8.1	3.6
Cc1cc([N+](=O)[O-])nn1Cc1ccc(F)cc1	8.1	7.5	-1.1	0.735	.	4.3	i	4.1	0.2
O=C(C[C@H]1C/C=C\CC[C@@H](Cc2ccc(F)cc2)C(=O)OCCNC1=O)NCCO	-1.1	3.5	-1.6	.	-11.8	4.0	i	-2.2	0.0

3 successive records already listed, quoted:
SMILES	rRNA inh HTS	rRNA inh HTS OD600	rRNA inh HTS RFP	E coli growth	ALR H2O2 inh	HNF4A DNA FP	FGF22 binding	B2AR ag	UCH37 DUB inh
CCOC(=O)C1=C(C)N(CCCC(=O)O)C(=O)NC1c1ccccc1Cl (configuration not stated)	3.7	0.4	-0.9	0.682	-0.1	.	i	.	1.1
NS(=O)(=O)c1ccc(N2CCN(C(=O)C3COc4ccccc4O3)CC2)nc1 (configuration not stated)	-0.9	0.7	0.1	0.633	.	-1.0	i	0.8	-2.2
CC1CN(C(=O)CCC(=O)N2CCCCC2)c2cc(Cl)ccc2O1 (configuration not stated)	-22.3	-15.7	-4.2	0.724	-3.5	-1.3	i	11.8	-1.8

(cont.)
SMILES	rRNA inh HTS	rRNA inh HTS OD600	rRNA inh HTS RFP	E coli growth	ALR H2O2 inh	HNF4A DNA FP	FGF22 binding	B2AR ag	UCH37 DUB inh
O=C(CN1C(=O)NC(Cc2c[nH]c3ccccc23)C1=O)Nc1cccc(S(=O)(=O)N2CCOCC2)c1 (configuration not stated)	-4.8	-4.5	0.5	0.689	-6.7	-1.0	i	4.3	6.2
O=C1C2C3C=CC(C3)C2C(=O)N1c1ccc(-c2nc3ccccc3o2)cc1 (configuration not stated)	.	.	.	0.72	-5.0	0.2	.	-2.4	-2.9
O=C(/C=C(\O)c1ccccc1)C(=O)NNC(=O)c1ccccc1[N+](=O)[O-]	2.0	12.9	-0.4	.	15.6	-0.7	i	-1.1	.
c1ccc2c(c1)ccc1nnc(SCc3ccc4c(c3)OCO4)n12	-6.8	0.0	7.3	0.765	-2.3	0.6	i	-13.7	-0.3
Cc1ccc(NC(=O)N2CCCC2C(=O)NCc2cccs2)cc1 (configuration not stated)	.	.	.	0.713	6.1	-2.1	.	-3.2	1.3
CCN(CC(=O)Nc1cc(Cl)ccc1C)C(=O)CSCc1c(C)noc1C	2.6	0.8	0.1	0.593	-8.9	3.9	i	3.4	2.0
CC1CCC2(CC1)NC(=O)N(CC(=O)NCc1ccc(F)cc1)C2=O (configuration not stated)	1.0	4.9	-1.0	0.669	0.5	0.3	i	-1.5	0.4
CCOC(=O)NC(=O)COC(=O)CNC(=O)c1ccc(OCC)c(OCC)c1	11.4	6.0	2.0	0.698	-3.9	4.2	.	-0.2	5.1
CNC(=O)C1CC(=O)N(CCCc2ccccc2)C(=Nc2ccccc2)S1 (configuration not stated)	.	.	.	0.686	-9.4	0.8	.	16.4	3.3
Cc1nnc(SCC(=O)NCc2ccccc2Cl)[nH]c1=O	12.1	2.5	-4.1	0.696	-4.5	-0.4	i	2.2	2.4
CCCS(=O)(=O)c1c(S(=O)(=O)CCC)c2c(N)cccn2c1C(=O)c1ccc(OC)cc1	-0.9	-13.0	3.5	0.68	-4.0	9.4	i	-11.5	0.6
Cc1cc(CNC(=O)COc2ccccc2)c2ccccc2n1	13.2	1.1	0.5	0.665	.	-0.9	i	4.4	2.2
O=C(CCCNS(=O)(=O)c1cccs1)N1CCN(c2ccc(F)cc2)CC1	.	.	.	0.745	.	2.7	.	-6.5	2.3
Cc1ccccc1C(=O)OCC(=O)N(C)c1c(N)n(Cc2ccccc2)c(=O)[nH]c1=O	16.5	6.7	-0.9	0.631	-1.2	-4.2	i	0.8	-1.3
CCOC(=O)C(NC(C)=O)(Nc1ccc(S(=O)(=O)Nc2cc(C)on2)cc1)C(F)(F)F (configuration not stated)	.	.	.	0.684	0.6	-1.3	.	-12.0	-0.5
Cn1c(NCc2ccccc2Cl)nc2ccccc21	1.6	-7.9	-2.0	0.735	5.0	3.4	i	-6.6	0.8
